# High-throughput results from PubChem BioAssay.
# HPGD inh – blocks human HPGD enzyme activity; purified HPGD, NADH fluorescence kinetic, PGE2 substrate; Potency, µM, without a hit: top-dose activity change, negative = inhibition, usual class: inhibitors; hit rate 4.3% among 150,000; active = well fitted inhibition curve with a large enough effect (not every such curve was filed as active); inconclusive = small, poorly fitted or top-dose-only effect, or another doubt; inactive = no such curve, though single readings can be large or run the other way;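 further: top concentration of the series not given in the record; plate controls included wells without enzyme; inactives centre near -10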
# Target sequence (P15428 whole entry, looked up): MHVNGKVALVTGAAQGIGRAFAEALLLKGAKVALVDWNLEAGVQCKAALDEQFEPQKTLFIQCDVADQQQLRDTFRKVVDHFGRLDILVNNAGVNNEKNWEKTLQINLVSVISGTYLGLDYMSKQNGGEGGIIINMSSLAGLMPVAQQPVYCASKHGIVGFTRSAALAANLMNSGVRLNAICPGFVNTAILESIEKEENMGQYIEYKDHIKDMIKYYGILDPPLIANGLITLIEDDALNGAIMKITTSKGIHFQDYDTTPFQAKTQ
#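 20 nM HPGD preincubated 15 min at room temperature with compound in 50 mM Tris-HCl pH 8, 0.01% Tween 20. Started with 1 mM NAD+ and 30 uM prostaglandin E2; NADH fluorescence (360/450 nm) read 5 times over 30-s intervals, last minus first.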
# The depositor's hits bear a star; ? = inconclusive; & = joins results of further samples. On the % scale 0 is the no-effect control and ±100 the full control effect; potency means the concentration at half of the fitted maximal effect.
SMILES,HPGD inh
O=C(c1ccc(Cl)cc1)c1oc2ccccc2c1CS(=O)c1ccc(Cl)cc1 (stereo unspecified),-18%
Cc1cccc(N(C)c2cc(C)nc3ncnn23)c1,-15%
Cc1cc(NC(=O)CCC(=O)N(CC(=O)NC2CCCC2)Cc2ccc(F)cc2)no1,-5%
O=c1ccc(NS(=O)(=O)c2ccc(Cl)cc2)cn1Cc1ccc(Cl)c(Cl)c1,-12%
C=CCn1c(-c2ccccc2)nc2nc3ccccc3nc21,?
COc1ccc(C(=O)NCC(=O)NCC2(N(C)C)CCCCC2)cc1OC,-8%
O=C(CSc1nc(-c2ccc(F)cc2)cs1)NC(=O)NCc1ccco1,-15%
Cc1ccccc1S(=O)(=O)NC1OC(=O)C(Cl)=C1Cl (stereo unspecified),-8%
COc1ccc(NC(=O)c2ccc(COc3ccccc3OC)o2)cc1OC,-8%
Cc1ccccc1C(=O)N/N=C/c1ccncc1,-5%

# Some of the entries above, reformatted.
molecule	HPGD inh
O=c1ccc(NS(=O)(=O)c2ccc(Cl)cc2)cn1Cc1ccc(Cl)c(Cl)c1	-12%
C=CCn1c(-c2ccccc2)nc2nc3ccccc3nc21	?
COc1ccc(C(=O)NCC(=O)NCC2(N(C)C)CCCCC2)cc1OC	-8%
O=C(CSc1nc(-c2ccc(F)cc2)cs1)NC(=O)NCc1ccco1	-15%
Cc1ccccc1S(=O)(=O)NC1OC(=O)C(Cl)=C1Cl (stereo unspecified)	-8%

# Grouped by structure: the compounds so far containing nitrogen in an aromatic ring.
SMILES,HPGD inh
Cc1cccc(N(C)c2cc(C)nc3ncnn23)c1,-15%
Cc1cc(NC(=O)CCC(=O)N(CC(=O)NC2CCCC2)Cc2ccc(F)cc2)no1,-5%
O=c1ccc(NS(=O)(=O)c2ccc(Cl)cc2)cn1Cc1ccc(Cl)c(Cl)c1,-12%
C=CCn1c(-c2ccccc2)nc2nc3ccccc3nc21,?
O=C(CSc1nc(-c2ccc(F)cc2)cs1)NC(=O)NCc1ccco1,-15%
Cc1ccccc1C(=O)N/N=C/c1ccncc1,-5%

# Later entries:
SMILES,HPGD inh
CC(C)CSc1nnc(N)s1,-25%
CC(=O)Nc1c(NCC(C)C)c2ccccc2oc1=O,-8%
COc1ccccc1NC(=O)C1=C(C)Nc2nnnn2C1c1cc(Br)ccc1OC (stereo unspecified),0%
COCCN1C(=O)N[C@@H](c2cccc(C(F)(F)F)c2)C(C(=O)OC)=C1C,0%
Cc1c(CN(C)C)c2c(n1Cc1ccccc1)C(=O)c1ccc(Br)cc1-2,-4%
CCN(CC)S(=O)(=O)c1cccc(NC(=O)CN2C(=O)c3ccc([N+](=O)[O-])cc3C2=O)c1,-5%
CCC(NC(=O)Nn1cnnc1)(C(F)(F)F)C(F)(F)F,-17%
COC(=O)c1cc(COC(=O)c2cccnc2SC)oc1C,-10%
Cc1csc(NC(=O)CCn2c(=O)oc3ccccc32)n1,-15%
O=C1OCCN1C(=O)[C@H]1[C@H](c2ccc(Cl)cc2)C(c2cccc(Cl)c2)=NN1c1ccc(Br)cc1,?
COc1ccc(CCNC(=O)C2CCN(S(=O)(=O)c3c(C)noc3C)CC2)cc1OC,-8%
Nc1ncnc2nc(SCCc3ccccc3)[nH]c12,-14%
Cc1cccnc1Nc1nc(-c2ccccn2)cs1,-6%
Cc1ccc(S(=O)(=O)NC(CC(C)C)C(=O)Nc2nccs2)cc1 (stereo unspecified),-9%
COc1cccc(NC(=O)c2oc3ccccc3c2NC(C)=O)c1,-14%
COC(=O)CSc1ccc2nnc(-c3ccc(OC)c(OC)c3)n2n1,?
CN(CC(=O)Nc1ccc(Cl)cc1)CC(=O)Nc1ccc(F)c(F)c1F,-13%
Cc1cccc(N2CCN(C(=O)C3CCCCC3)CC2)c1C,-14%
OC(COCc1ccco1)CN1CCN(c2ccccc2)CC1 (stereo unspecified),0%
Cc1nn(CC(=O)Nc2nc3ccccc3s2)c(C)c1[N+](=O)[O-],-5%
S=c1[nH]nc(C2CC2c2ccc(Cl)cc2)n1-c1ccc(Cl)cc1 (stereo unspecified),5µM*
O=C(NCc1ccccc1C(F)(F)F)C1CC(c2ccccc2[N+](=O)[O-])=NO1 (stereo unspecified),-12%
CCc1ccc(-n2c(O)c(C=NCCN(CC)CC)c(=O)[nH]c2=O)cc1,-11%
COC(=O)C1CCN(CC(N)=O)CC1,-10%
COC(=O)[C@@H]1C[C@@]2(O)[C@H](O)[C@H](O)[C@H](O)C[C@H]2N1Cc1ccc(C(C)(C)C)cc1,-5%
CSc1nnc(-c2cnccn2)n1Cc1ccccc1,-5%
COc1ccc2c(c1)C1(Nc3ccccc3-c3nc4ccccc4n31)C(=O)N2C (stereo unspecified),-4%
CC(C)CCNC(=O)C1CCN(c2nnc(-n3cccc3)s2)CC1,-20%
O=C(CSCc1ccc(Br)cc1)N=Nc1c(O)[nH]c2ccccc12,-4%
CCCCOc1ccc(N(CC(=O)NCC2CCCO2)C(=O)CCC(=O)Nc2cc(C)ccn2)cc1 (stereo unspecified),-5%
COc1ccc(NC(=O)CSc2nnc(-c3ccco3)n2C)cc1,4%
CN(N=O)c1ccc(/C=C\c2ccnc3ccccc23)cc1,?
CCCC(=O)Nn1cnc2c(c1=O)C1(CCCC1)Cc1ccccc1-2,-12%
Cc1ccc(S(=O)(=O)N2CCN(C(=O)Cc3ccc4c(c3)OCCO4)CC2)cc1C,-11%
Cc1cc(F)ccc1S(=O)(=O)Nc1ccccc1C(=O)Nc1ccc2[nH]c(=O)[nH]c2c1,-9%
O=c1cc2c(n[nH]1)CCCC2,-3%
CCC1=C2CC[C@H]3C(=O)N(C)C(=O)[C@H]3[C@H]2[C@@]2(C)C(=O)N(CC(=O)OC)C(=O)N2C1=O,-12%
CC(=O)NC1=NN(C(C)=O)C(C)(CS(=O)(=O)c2ccc(Cl)cc2)S1 (stereo unspecified),-13%
C=C(C)c1cccc(C(C)(C)NC(=O)N2CCN(c3ccccn3)CC2)c1,-15%
O=C(CCc1ccccc1)Nc1ccccc1C(=O)NCc1ccco1,-7%
CCNC(=O)CSc1nc2ccccc2c(=O)n1CCCOC(C)C,-10%
COc1ccc(C2=C(N)c3ccccc3C2=O)cc1,-10%
CC1CCCCN1C(=O)Nc1cccc(Cl)c1 (stereo unspecified),22µM*
Cc1ccccc1CS(=O)(=O)c1cn(CC(=O)N2CCC(C)CC2)c2ccccc12,-18%
CCOc1ccc(C2NC(=O)c3ccccc3O2)cc1 (stereo unspecified),-14%
C/C=C/C(=O)OCC(=O)Nc1c(Cl)cccc1Cl,-12%
O=C(c1noc2c1CCCC2)N1CCN(c2ccc(F)cc2)CC1,-12%
O=C(Nn1c(C2CCC2)nc2ccccc2c1=O)C1CCC1,-14%
Cc1cc(NC(=O)CSc2nc3cc(Cl)ccc3s2)no1,-11%
C=CCNC(=O)c1ccc(OC)cc1OC,-5%

# 3 entries out of the list above, ordered by their value in HPGD inh, largest number first:
SMILES	HPGD inh
C=CCNC(=O)c1ccc(OC)cc1OC	-5%
CCNC(=O)CSc1nc2ccccc2c(=O)n1CCCOC(C)C	-10%
O=C(c1noc2c1CCCC2)N1CCN(c2ccc(F)cc2)CC1	-12%

# Further results.
SMILES,HPGD inh
Cc1[nH]nc(Sc2ccccn2)c1[N+](=O)[O-],-1%
Cc1c(N=C(N)/N=C(\N)Nc2ccc(Br)cc2)c(=O)n(-c2ccccc2)n1C,-6%
O=P1(c2ccccc2)C=Cn2c1cc1c2CCCC1 (stereo unspecified),?
CCCCCCN1N=C(C)C(C(=O)c2ccc(Cl)cc2)C1=O (stereo unspecified),-4%
O=C(NC1(C(F)(F)F)NC(=O)N(Cc2cccnc2)C1=O)c1ccccc1 (stereo unspecified),-1%
COc1ccc(Nc2cccc(Cl)c2)c(C(=O)O)c1,?
O=C(Cc1ccccc1)N/N=C/c1ccc(Cl)cc1Cl,-9%
CCCCCCC(C)n1cc(C(C)=O)c(=O)[nH]c1=O (stereo unspecified),5%
Cc1ccc(-n2c(SCC(N)=O)nnc2-c2ccccn2)cc1,-4%
CC(C)(C)CC(=O)O/N=C(\N)c1ccccn1,-2%

# A section of the results above, for reference:
SMILES,HPGD inh
Cc1[nH]nc(Sc2ccccn2)c1[N+](=O)[O-],-1%
Cc1c(N=C(N)/N=C(\N)Nc2ccc(Br)cc2)c(=O)n(-c2ccccc2)n1C,-6%

# Next section
SMILES,HPGD inh
O=C(Nc1cc2c(cc1Cl)OCCCO2)c1ccc(F)cc1,-14%
O=C(Nc1ccncc1)c1ccc(NS(=O)(=O)c2cccc(F)c2)cc1,-18%
CN(C)c1nc(C(=O)Nc2ccccc2)nc(N(C)C)n1,-6%
CC1(C)CCC2=C(O1)c1ccccc1C(=O)C2=O,-15%&-10%
O=C1CCc2cc(S(=O)(=O)N3CCC(C(=O)NC4CCCc5ccccc54)CC3)ccc2N1 (stereo unspecified),-4%
Cc1cc(C)n(CCc2nc(-c3cc4ccccc4o3)cs2)n1,-11%
CCn1c(SCC(=O)c2cc(OC)ccc2OC)nnc1C1CC1,-14%
O=C(CN1C(=O)NC2(CCCCCC2)C1=O)c1ccc2c(c1)OCCO2,-8%
O=C(Nc1c(F)c(F)c(F)c(F)c1F)C1CCCCC1,-22%
Cc1ccccc1C(=O)NC(NCC1CCCO1)C(Cl)(Cl)Cl (stereo unspecified),-9%
Cc1csc(NC(=O)c2c(O)c3cccc4c3n(c2=O)CCC4)n1,-11%
NS(=O)(=O)c1ccc(CNC(=O)c2ccc(Br)o2)cc1,-10%
O=C(CC1SC(=NCC2CCCO2)NC1=O)Nc1cccc2ccccc12 (stereo unspecified),-3%
O=C(/C=C/c1ccccc1)c1ccc2c(c1)OCCCCO2,?
COc1ccc(C(=O)/C=C/Nc2ccc([N+](=O)[O-])cc2)cc1,-20%
Cc1cnc(Nc2nc3ccccc3o2)nc1C(=O)Nc1cccc(C(F)(F)F)c1,-4%
CCOC(=O)C1=C(C)NC(SCC(N)=O)=C(C#N)C1c1ccccc1 (stereo unspecified),-13%
COc1ccc(C)cc1C1=Nc2ccccc2C1(C)C,-19%
COc1cccc(N2CCN(C3CC(=O)N(c4ccc(Cl)cc4)C3=O)CC2)c1 (stereo unspecified),0%
CCN(CC)C(=O)c1cc(-c2ccc(Br)cc2)on1,-21%
COc1ccc2occ(C(=O)c3ccc(N=C(C)N(C)C)cc3)c2c1,-16%
CCOC(=O)N1CCC(N2Cc3cccc(C(=O)N4CC(C)CC(C)C4)c3C2=O)CC1 (stereo unspecified),-12%
Cc1ccc(CC2(O)CCN(CCOc3ccc(O)cc3)CC2)cc1,3%
CCn1cnc2cc(NS(=O)(=O)c3ccc(C)cc3)ccc21,-10%
O=C(Nc1ccccc1C(=O)N1CCCC1)C1CCN(c2ncccn2)CC1,-16%
O=C(c1ccccc1)c1nn(-c2ccccc2)c2nnc(Cc3ccccc3)c(=O)n12,-12%
Cc1cc(C(=O)N/N=C2\CCCC(=O)C2)c(C)n1-c1ccccc1,-7%
COC(=O)c1ccc(CNC(=O)COc2ccccc2Br)o1,-3%
Clc1ccc(Cl)c(OCCN2CCOCC2)c1,-10%
N#Cc1ccccc1Sc1ccccc1C(=O)OCC(=O)NC1CCCCC1,-19%
CCCCNC(=O)Nc1ccon1,-4%
COC(=O)CCN(C(=O)c1cccc(OC(C)=O)c1)c1ccccn1,1%
COc1ccc(S(=O)(=O)N(C(C)=O)c2ccc3oc(=O)sc3c2)cc1,20µM*
CCOC(=O)N1CCC(NC(=O)c2cc3c(=O)n(C)c4ccccc4c3n2C)CC1,-12%
Cn1ncc([N+](=O)[O-])c1C(=O)N1CCOCC1,-9%
Cn1cccc1C(=O)N1CCC[C@@]2(CCN(c3ccccc3)C2)C1,-11%
CN(Cc1nc(-c2ccccn2)no1)S(=O)(=O)c1ccccc1,-11%
Cc1ccnc(N2CCCC(C(=O)Nc3cc(F)ccc3C)C2)n1 (stereo unspecified),-17%
O=C(CCC(=O)N1CCCC1)Nc1nnc(C2CCCCC2)s1,-1%
CCN(CC(=O)NC(C)C)C(=O)c1ccc(S(=O)(=O)N(C)c2ccccc2OC)cc1,-8%
O=C(CSc1nnc(Cn2c(=O)sc3ccccc32)n1CCc1ccccc1)N1CCCC1,-9%
O=C(Nc1ccc(Cl)cc1)c1cnc(-c2ccccc2)nc1-c1ccccc1,-8%
COc1ccccc1-c1nc(C#N)c(N2CCCCCC2)o1,?
Cc1cnc(SCCc2ccncc2)nc1C,-20%
O=C(CSc1cccc2cccc(Cl)c12)NCc1cccs1,10µM*
COc1ccc(/C=C/C(=O)Nc2ccc(N3CCOCC3)cc2)cc1,-18%
CCOc1cccc(C(=O)Nc2cccc(-c3nnc(-c4ccc(C)cc4)o3)c2)c1,?
O=C(Cc1nn[nH]n1)c1ccccc1O,1%
Cc1ccccc1C(=O)N1CCN(c2ccc([N+](=O)[O-])c(NCc3cccnc3)c2)CC1,-13%
CCN(C(=O)COc1ccc(C)nc1[N+](=O)[O-])C1CCS(=O)(=O)C1 (stereo unspecified),-8%
# The results go on:
SMILES,HPGD inh
O=C(CSc1ncn[nH]1)Nc1ccc(Cl)c(Cl)c1,-3%
NS(=O)(=O)c1ccc(NCc2ccccc2OCc2ccccc2F)cc1,-8%
Cc1cc(Oc2ccccc2)nc(-c2ccccc2)n1,?
COC(=O)c1c(C(=O)OC)c(-c2ccccc2)n2c1CS(=O)(=O)C2,-1%
COc1cccc(NS(=O)(=O)c2ccc(OC)c(OC)c2)c1,-9%
Cc1c(NC(=O)c2cnn3c(C(F)(F)F)cc(-c4ccco4)nc23)c(=O)n(-c2ccccc2)n1C,-23%
Cc1ccccc1NC(=O)c1cnc(Nc2nc3ccccc3s2)nc1C,0%
COC(=O)c1c(NC(C)=O)sc(Cc2ccccc2)c1C,-9%
CN1C(=O)SC(Nc2ccccc2C(=O)O)C1=O (stereo unspecified),?

# The list is partial; rates above refer to the full screens.
